# Bst PK mod: Pyruvate Kinase; partly purified Bacillus stearothermophilus pyruvate kinase, luminescence ATP production; ribose 5-phosphate activator present at AC10; Potency, µM; 51,000 tested, 1.2% active; in the data active means potency below about 11 µM; inconclusive means mostly about 12 µM to 25 µM; inactive means weaker than that;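 the screen sought inhibitors and activators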;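 note: potency is the fitted concentration of half-maximal effect; scaled between full activation by ribose 5 phosphate and full inhibition by luteolin; about four in five hits inhibit and the cells do not say which; series up to 57 µM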
# TsaE inh: qHTS Assay for Inhibitors of YjeE | tRNA threonylcarbamoyladenosine biosynthesis protein TsaE (Escherichia coli (strain … | AID 605, 2007 | purified YjeE, fluorescence polarisation of a bound ADP probe | Potency, µM | 71,000 tested, 0.05% active; active = well fitted falling curve; inconclusive = weaker or top-dose-only fall, or a rising curve; inactive = flat or poorly fitted curve;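 note: top concentration of the series not given in the record; excess ADP was the control for the full effect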
#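 Purified YjeE (10 uM) with BODIPY Texas Red-labeled ADP probe (2 uM); compounds pin-transferred, 15 min at room temperature. Binding inhibition read as decreased fluorescence polarization; ADP titration as control.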
# * = called active by the depositor; i = inactive; ? = inconclusive; . = no result given. This is a subset; the hit share may differ from the screen's.
Bst PK mod | TsaE inh | SMILES
. | i | CCOC(=O)[C@]1(CC(=O)O)CCCC1=O
. | i | COc1cccc(NC(=O)c2nnn(Cc3ccc(Br)cc3F)c2N)c1
>57 | i | O=C1c2ccccc2C(=O)N1CCCC(=O)N1CCCc2ccccc21
>57 | i | CCCCNC(=O)CSc1nc2cc3c(cc2c(=O)n1CCCN(CC)CC)OCO3
i | i | CCN1/C(=C/C(=O)c2ccco2)Sc2ccccc21
>57 | i | CCS(=O)(=O)N1Cc2ccccc2CC1C(=O)N1CCN(c2cccc(C)c2C)CC1 (configuration not stated)
. | i | COc1ccc(N2CCN(c3cc(C)c4ccc(O)cc4n3)CC2)cc1
>57 | i | CCS(=O)(=O)N1CCCC(c2nc(-c3cccc(OC)c3)no2)C1 (configuration not stated)
>57 | i | O=C(CSc1n[nH]c(-c2ccccc2)n1)NC(=O)NCc1ccco1
>57 | i | CCOc1cc(C(=O)Nc2ccccc2N2CCN(S(C)(=O)=O)CC2)cc(OCC)c1OCC
. | i | Cc1cc(NC(=O)CN2CCN(Cc3ccccc3)CC2)nc2c1c(=O)oc1ccccc12
>57 | i | O=C(NC1(C(F)(F)F)N=C2SCCN2C1=O)c1ccco1 (configuration not stated)
>57 | i | Cc1cccc(NC(=O)CCN2C(=O)c3ccccc3C2=O)n1
>57 | i | CCN(CCCNC(=O)C1CCN(S(=O)(=O)N2CCOCC2)CC1)c1cccc(C)c1
>57 | i | FC(F)(F)c1cc(-c2ccco2)nc(NCc2cccs2)n1
>57 | i | Cn1c(C(=O)NCc2cccnc2)cc2sccc21
>57 | i | CC1CN(C(=O)CCn2c(=O)oc3ccccc32)CC(C)O1 (configuration not stated)
>57 | i | CCCCN(CCCNC(=O)C1CCN(S(=O)(=O)N2CCOCC2)CC1)c1ccccc1
. | i | COc1cc(-c2ccccc2)nc(N)n1
>57 | i | O=C(CSCCO)Nc1nccs1
>57 | i | CC1CCc2c(C(=O)NCCN3CCOCC3)csc2C1 (configuration not stated)
>57 | i | C/C=C(\C)CN1CCN(c2ccccc2F)CC1
>57 | i | CCOc1ccccc1-n1c(SCC(=O)Nc2nccs2)nnc1-c1ccoc1C
. | i | Cc1nc2sc(C(c3ccco3)N3CCC(Cc4ccccc4)CC3)c(O)n2n1 (configuration not stated)
>11.4 | i | O=S(=O)(NC1CCCC1)c1ccc(Br)s1
>57 | i | O=C(COc1cccc(-n2cnnn2)c1)NCCC1=CCCCC1
. | i | O=C(c1cnccn1)N1CCC2(CCCN(Cc3ccccc3)C2)CC1
>57 | i | O=S(=O)(c1ccc(Br)s1)N1CCN(c2ccccn2)CC1
>57 | i | CCN(CC)C(=O)N1c2ccccc2CC(N(CC)CC)c2ccccc21 (configuration not stated)
>57 | i | Cc1cc(Oc2ccccc2)nc(-c2ccccc2O)n1
>57 | i | COc1ccc(NC(C)c2cc(Cl)ccc2O)cc1 (configuration not stated)
. | i | COc1ccc(N2CCN(C(=O)CN(c3ccc(Br)cc3)S(C)(=O)=O)CC2)cc1
>57 | i | O=C(CCn1c(=O)oc2ccccc21)NC1=NCCS1
. | i | COc1cccc(Cn2c(=O)c(C)nc3cnc(OC)nc32)c1
>57 | i | CCN(CCCNC(=O)CC(C(=O)N1CCc2ccccc21)n1ccnc1)c1cccc(C)c1 (configuration not stated)
. | i | c1cncc(-c2nc(-c3cccs3)cs2)c1
>57 | i | O=C(c1ccccc1)c1nc2ccccc2[nH]c1=O
>57 | i | Cn1c(=O)n(CC(=O)Nc2ccc(F)cc2)c2ccccc21
>57 | i | Cc1ccc(C2NC(=O)c3ccccc3N2)s1 (configuration not stated)
. | i | CS(=O)(=O)N1CCC2(CCN(C(c3ccccc3)c3ccccc3)CC2)CC1
>11.4 | i | COc1ccc(CCNC(=O)Cn2nnc(-c3ccc(N4CCOCC4)cc3)n2)cc1OC
. | i | CC1=C(C(=O)Nc2ccccc2)C(c2ccco2)C(C#N)=C(SCc2ccccc2)N1 (configuration not stated)
. | i | CSCC[C@@H](C(=O)O)N1Cc2ccccc2C1=O
3.43* | i | Cc1cc(N2CCCCC2)n2ncc(-c3ccccc3)c2n1
>57 | i | O=C(Nn1c(C2CC2)nc2ccccc2c1=O)c1ccco1
>57 | i | Cc1noc(C)c1COC(=O)Cn1c(C)nc2ccccc21
>57 | i | O=C(CCN1C(=O)C2C3C=CC(C3)C2C1=O)Nc1ccccn1 (configuration not stated)
>57 | i | O=C(c1ccc(F)cc1)N1CCC(O)(c2cccnc2)CC1
. | i | CC(C)C12CN3CC(C(C)C)(CN(C1)C3c1ccccc1O)C2=O (configuration not stated)
>57 | i | NS(=O)(=O)c1ccc(CCNC(=O)c2ccccc2F)cc1
. | i | CC(C)Cc1cc(C(=O)NCCCN2CCOCC2)no1
. | i | COc1ccccc1N1CCN(CC(=O)c2c(C)[nH]c3cc(C)ccc23)CC1
. | i | O=c1c2c([nH]c3ccc(Br)cc13)CCCC2
2.75* | i | O=C(CN1C(=O)c2cccc3cccc1c23)NCc1ccc2c(c1)OCO2
>57 | i | O=C(Cc1ccccn1)Nc1ccccc1
>57 | i | COc1ccc(NC2CS(=O)(=O)CC2OC(=O)c2ccc(F)cc2)cc1 (configuration not stated)
>11.4 | i | CN(C)c1ccc(NC(=O)c2cc3c(=O)n4ccccc4nc3n2C)cc1
. | i | c1ccc(C2=Nn3c(nnc3-c3cccnc3)SC2)cc1
>25.6 | . | COc1ccc(OC)c(N=C(C)C2=C(O)COC2=O)c1
>57 | i | COC(=O)c1[nH]c2cccc(Cl)c2c1NC(=O)CN1CCN(CCO)CC1

# (next part)
Bst PK mod | TsaE inh | SMILES
>57 | i | CN(C)C(CNC(=O)CN1C(=O)NC2(CCc3ccccc32)C1=O)c1ccco1 (configuration not stated)
. | i | Cc1cc(C)c(S(=O)(=O)Nc2cccnc2)c(C)c1
. | i | O=C(NCc1ccc2c(c1)OCO2)C1CCC(CNc2c(N3CCCCC3)c(=O)c2=O)CC1 (configuration not stated)
>57 | i | O=C(c1ccccc1F)N(Cc1ccc(F)cc1)C1CCS(=O)(=O)C1 (configuration not stated)
. | i | CCOC(=O)C1CCN(C(=O)CN(c2ccc(OC)c(OC)c2)S(=O)(=O)c2ccccc2)CC1
. | i | N/C(=N\O)c1cn([C@@H]2O[C@@H](CO)[C@H](O)[C@@H]2O)c2ncnc(NO)c12
. | i | O=C(CSc1nnnn1-c1ccccc1Cl)Nc1ccc2c(c1)OCCO2
>57 | i | CC(=O)Nc1ccc(C(=O)n2nc(C)cc2C)cc1
. | i | O=C1C(C=NCc2cccnc2)=C(O)c2ccccc21
>57 | i | CCN=C1SC(CC(=O)Nc2sc(C)c(C)c2C(=O)OC)C(=O)N1CC (configuration not stated)
>57 | i | COc1ccc(CCNc2oc(COc3ccccc3F)nc2C#N)cc1OC
>57 | i | Cc1ccc2nsnc2c1S(=O)(=O)NCc1cccnc1
>57 | i | COc1ccc(C2C(C(=O)NCCN(C)C)c3ccccc3C(=O)N2C)cc1OC (configuration not stated)
>57 | i | CN(Cc1cnn(C)c1)C(=O)c1cc2ccccc2oc1=O
. | i | Cc1cc(F)c(F)c(C(=O)N2CCN(C)CC2)c1Cl
. | i | Cc1cccc(CCNC(=O)C2CCCN(S(=O)(=O)c3cnc[nH]3)C2)c1 (configuration not stated)
. | i | Cc1nc2scc(-c3ccccc3)c2c(=O)o1
. | i | CCOC(=O)Cc1nnc(NC(=O)c2ccccc2OC)s1
. | i | COCC(=O)NCCc1nc2ccccc2[nH]1
>57 | i | Cc1noc(C)c1C(=O)Nc1ccc2c(c1)CCC2
. | i | CCOC(=O)N1CCN(c2c(NCCN3CCCCC3CC)c(=O)c2=O)CC1 (configuration not stated)
>57 | i | c1cnc(N2CCN(c3ncnc4c3oc3ccccc34)CC2)nc1
>57 | i | CC(C)N(Cc1nc(-c2ccccc2)no1)C(=O)CCCN1C(=O)c2ccccc2C1=O
>57 | i | Cc1c(NC(=O)C(C)Oc2ncnc3ccccc23)c(=O)n(-c2ccccc2)n1C (configuration not stated)
>57 | i | Cc1ccc(-c2nnn(CC(=O)N(c3ccccc3)C(C(=O)NC3CCCC3)c3ccco3)n2)o1 (configuration not stated)
>57 | i | Cc1ccc2nc(SC(C)C(=O)N3CCCC3)[nH]c2c1 (configuration not stated)
>57 | i | C=CCn1c(COc2ccc(Cl)cc2)nnc1SCC(=O)N1CC(=O)Nc2ccccc21
. | i | Cc1csc2ncc(C(=O)NCc3ccccc3Cl)c(=O)n12
. | i | O=C(C1CCCN(S(=O)(=O)c2cccc3cccnc23)C1)N1CCN(c2ccc(F)cc2)CC1 (configuration not stated)
>57 | i | c1ccc(-c2nc3nonc3nc2-c2ccccc2)cc1
>57 | i | COc1ccc(Cl)cc1N1CC(C(=O)Nc2nccs2)CC1=O (configuration not stated)
>57 | i | c1ccc2c(c1)oc1c(NCCCN3CCOCC3)ncnc12
>57 | i | CCOC(=O)C1CCN(C(c2cc3cc(C)cc(C)c3[nH]c2=O)c2nnnn2C2CCCCC2)CC1 (configuration not stated)
>57 | i | O=C(Nc1ccc(C(=O)N2CCOCC2)cc1)c1cccs1
. | i | CCCc1nnc(SCc2ccc(OC)cc2)n1N
>57 | i | Cc1cc(N(C)C)c(C#N)c(=O)[nH]1
>25.6 | . | CC1(C)Cc2c(c(-c3ccccc3)[nH]c(=O)c2C#N)CS1
>57 | i | C/C=C(\CS(=O)(=O)c1ccccc1)S(=O)(=O)c1ccccc1
. | i | CCOCCOC(=O)C1=C(C)NC2=C(C(=O)CC(c3cccs3)C2)C1c1ccsc1 (configuration not stated)
. | i | C[C@@H](C(=O)NCC1CC1)[C@H]1C[C@]1(C)[C@H](NC(=O)OCc1ccccc1)c1ccccc1
>57 | i | CC(=O)OCCNC(=O)c1cc2ccccc2oc1=O
. | i | CCOC(=O)N1CCN(C(=O)c2ccc3c(=O)n(CCC4=CCCCC4)c(=S)[nH]c3c2)CC1
>57 | i | O=C(CSc1ccccc1)Nc1ccncc1
>57 | i | Cc1nc2c(s1)sc1ccccc12
>57 | i | COc1ccc(C(=O)n2nc(C)cc2C)cc1OC
>57 | i | COc1cc(C(=O)Nc2ccc(-c3nc4cc(C)ccc4o3)c(O)c2)cc(OC)c1OC
>57 | i | O=C(O)CCc1ccc(-c2ccccc2)n1-c1cccc(O)c1
>57 | i | COCCNC(=O)CN(C(=O)CCC(=O)Nc1cc(C)on1)c1ccc(C)cc1C
. | i | c1cc2c(cc1C1CCCCC1)c1c3n2CCN[C@H]3CCC1
. | i | CCNc1ncc2nc(CCc3ccccc3)c(=O)n(C[C@H]3CCCO3)c2n1
>57 | i | Cc1cc(NC(=O)CSc2nnc(-c3ccc4c(c3)OCCO4)o2)no1
>25.6 | . | COCCCNc1nc2c(c(=O)[nH]c(=O)n2C)n1CC(O)COc1ccccc1 (configuration not stated)
>25.6 | . | CCOP(=O)(c1ccccc1)c1nc(-c2ccc(F)cc2)oc1N1CCCCC1 (configuration not stated)
. | i | Cc1cc(C)c2c(=O)n(CC(=O)NCCCN3CCN(c4ccccc4F)CC3)sc2n1
>57 | ? | CCOc1cccc2cc(C(=O)N3CCc4ccccc43)c(=O)oc12
>57 | i | CN(C(=O)c1ccno1)c1nnc(-c2ccccn2)s1
>57 | i | CCOC(=O)CNC(=O)Cn1c(C)cc2ccccc2c1=O
>57 | i | CC(=O)C1=C(C)Nc2ncnn2C1c1ccc(Cl)cc1 (configuration not stated)
. | i | O=C(c1cncc(Br)c1)N1CCN(c2ccc(N3CCOCC3)nn2)CC1
>57 | i | COc1ccc(C(=O)CSc2nc3nc(C)cc(C)n3n2)cc1OC

# Printed as active in Bst PK mod, of those listed so far:
Bst PK mod | TsaE inh | SMILES
3.43* | i | Cc1cc(N2CCCCC2)n2ncc(-c3ccccc3)c2n1
2.75* | i | O=C(CN1C(=O)c2cccc3cccc1c23)NCc1ccc2c(c1)OCO2

# Structural class: the entries above containing an NH in an aromatic ring (13)
Bst PK mod | TsaE inh | SMILES
>57 | i | O=C(CSc1n[nH]c(-c2ccccc2)n1)NC(=O)NCc1ccco1
>57 | i | O=C(c1ccccc1)c1nc2ccccc2[nH]c1=O
. | i | COc1ccccc1N1CCN(CC(=O)c2c(C)[nH]c3cc(C)ccc23)CC1
. | i | O=c1c2c([nH]c3ccc(Br)cc13)CCCC2
>57 | i | COC(=O)c1[nH]c2cccc(Cl)c2c1NC(=O)CN1CCN(CCO)CC1
. | i | Cc1cccc(CCNC(=O)C2CCCN(S(=O)(=O)c3cnc[nH]3)C2)c1 (configuration not stated)
. | i | COCC(=O)NCCc1nc2ccccc2[nH]1
>57 | i | Cc1ccc2nc(SC(C)C(=O)N3CCCC3)[nH]c2c1 (configuration not stated)
>57 | i | CCOC(=O)C1CCN(C(c2cc3cc(C)cc(C)c3[nH]c2=O)c2nnnn2C2CCCCC2)CC1 (configuration not stated)
>57 | i | Cc1cc(N(C)C)c(C#N)c(=O)[nH]1
>25.6 | . | CC1(C)Cc2c(c(-c3ccccc3)[nH]c(=O)c2C#N)CS1
. | i | CCOC(=O)N1CCN(C(=O)c2ccc3c(=O)n(CCC4=CCCCC4)c(=S)[nH]c3c2)CC1
>25.6 | . | COCCCNc1nc2c(c(=O)[nH]c(=O)n2C)n1CC(O)COc1ccccc1 (configuration not stated)

# Later entries.
Bst PK mod | TsaE inh | SMILES
. | i | Cc1nc(N2CCN(C(=O)c3ccco3)CC2)c2c3c(sc2n1)CCC3
>57 | i | Cc1onc(-c2ccccc2)c1C(=O)Nc1cccc(OC(C)C)c1
>57 | i | COc1ccc(NC(=O)N2CCCC2)cc1OC
>57 | i | COCCCN1C(=O)C(=O)/C(=C(/O)c2ccc(OCC(C)C)cc2)C1c1cccnc1 (configuration not stated)
>57 | i | COC(=O)c1c(C(C)=O)cnc2ccc(Br)cc12

# Bioassay records as filed in PubChem.
